Screening results from PubChem.
TRPML1 inh = blocks the human TRPML1 channel. Q9GZU1. TRPML1-inducible cells, Ca2+ dye fluorescence, FDSS; stronger effect = lower value; inhibition of EC80 agonist-evoked calcium signal. activity change, negative = inhibition, % (test concentration not listed). 390,000 compounds, 0.02% hits; in the data active means activity change below about -50%; inconclusive means about -30% to -50%; inactive means above about -30%;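 also: stimulus is agonist 54-4 at its EC80 concentration; % is scaled to controls: 0 for no effect and ±100 for the full control effect; compound concentration not given in the record; the text of the record puts the active cut at -80%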
Target sequence (Q9GZU1 whole entry, looked up): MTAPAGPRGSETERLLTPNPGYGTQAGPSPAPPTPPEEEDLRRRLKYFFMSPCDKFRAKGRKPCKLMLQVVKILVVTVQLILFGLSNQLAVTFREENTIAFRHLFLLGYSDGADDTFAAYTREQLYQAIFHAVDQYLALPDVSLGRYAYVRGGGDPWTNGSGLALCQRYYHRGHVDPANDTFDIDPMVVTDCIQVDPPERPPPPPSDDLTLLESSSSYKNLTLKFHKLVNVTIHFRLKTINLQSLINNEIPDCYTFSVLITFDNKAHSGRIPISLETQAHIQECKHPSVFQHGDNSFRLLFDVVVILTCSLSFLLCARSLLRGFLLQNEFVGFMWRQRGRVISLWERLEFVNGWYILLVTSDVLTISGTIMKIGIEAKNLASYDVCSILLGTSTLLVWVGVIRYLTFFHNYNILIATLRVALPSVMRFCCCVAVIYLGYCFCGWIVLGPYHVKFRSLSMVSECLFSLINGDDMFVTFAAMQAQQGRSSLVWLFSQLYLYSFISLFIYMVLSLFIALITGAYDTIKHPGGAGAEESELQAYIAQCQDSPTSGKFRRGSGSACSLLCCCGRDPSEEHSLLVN
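TRPML1-DL cells, Tet-induced overnight (~16 h, 37 °C) at 1,500 cells/well, were loaded with Ca8 no-wash dye plus quencher for 45-90 min at room temperature. Compounds were pinned during FDSS kinetic reading; agonist 54-4 at EC80 (4 uM final) then added.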
Sfp inh = Sfp phosphopantetheinyl transferase inhibition. Q9F4F7. Biochemical Sfp PPTase activity, qHTS. Potency, µM, without a hit: max response, negative = inhibition, most hits filed as inhibitors. 310,000 compounds, 3.5% hits. AID 1490; active = well fitted inhibition curve with a large enough effect; inconclusive = small, poorly fitted or top-dose-only effect, or another doubt; inactive = no such curve, though single readings can be large or run the other way;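 also: the enzyme is Sfp with the accession as filed and its product quenches rhodamine fluorescence; potency is read from the fitted curve at half-maximal effect; 0% = enzyme reaction without inhibitor and -100% = no enzyme wells; top concentration of the series not given in the record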
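Step 1, compound plus 15 nM Sfp-PPTase, 15 min, room temperature. Step 2, add rhodamine-CoA (5 uM) and BHQ-2-YbbR (12.5 uM). Step 3, read 525/598 nm fluorescence at 0 and 30 min.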
Menin-MLL FL inh = inhibitors of human menin-MLL interaction, wild-type MLL peptide; Fluorescence polarization, fluorescein-MLL peptide displacement from menin; FP activity change, % at 61.4 µM; 290,000 tested, under 10 active; inconclusive = falling polarisation curve, or a change in total fluorescence; inactive = total fluorescence flat and polarisation flat or rising; no compound was filed as active; the % refers to the polarisation; negative = inhibition;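 also: % of control where 0% means no effect; inhibitors lower the polarisation; unlabelled MLL peptide was the positive control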
TRPML1 agonist = human mucolipin-1 channel agonism; 410,000 compounds, 0.12% hits; TRPML1-expressing cells, Ca2+ dye fluorescence, FDSS; host cell line not named in the record; reference of the full effect not given here; Q9GZU1; AID 624414; activation, % (test concentration not listed); in the data active = activation above about 50%; inconclusive = about 30% to 50%; inactive = below about 30%; also: 0% is about no effect; the text of the record puts the active cut at 80%
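Tetracycline-induced TRPML1-DL cells are seeded and incubated overnight before loading with a no-wash Ca2+ dye and quencher. Agonist activity is taken from the 110 s fluorescence read following compound pin-transfer on an FDSS, before EC80 54-4 challenge.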
PINK1 expr mod = modulators of PINK1 expression; Potency, µM (series often up to 76.6 µM), for the others: at the top dose activation (PINK1 increase), usual class: activators; PINK1 immunofluorescence, high-content cytometry, 24 h; 410,000 compounds, 0.2% hits; active = well fitted activation curve with a large enough effect; inconclusive = small, poorly fitted or top-dose-only effect; inactive = flat fitted curve, though single readings scatter; cell line not stated here;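 also: potency is read from the fitted curve at half-maximal effect; % of control where 0% means no effect; nearly all actives have a fitted effect of over 65% in size; a mitochondrial uncoupler was the plate control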
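A stable cell line was treated with compounds at 5 concentrations for 24 hours, with CCCP as control. PINK1 levels and mitochondrial localization were measured by immunofluorescence with mitochondrial, cell and nuclear markers after fixation, read by laser-scanning cytometry.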
ClpP mod = qHTS Assay for Activators of ClpP | purified B. subtilis ClpP, FRET peptide cleavage, 20 min | Potency, µM (highest dose often 57.5 µM), inactives show at the highest dose activity change, negative = active | 340,000 compounds, 1.9% hits; active = well fitted falling curve with a large enough effect; inconclusive = small, poorly fitted or top-dose-only effect; inactive = no such curve, though single readings can be large or run the other way; also: potency is read from the fitted curve at half-maximal effect; the source files actives as falling curves though it sought activators and does not explain the sign; nearly all actives have a fitted effect of over 65% in size; many hits overshoot -100%
Target sequence (P80244 whole entry, looked up): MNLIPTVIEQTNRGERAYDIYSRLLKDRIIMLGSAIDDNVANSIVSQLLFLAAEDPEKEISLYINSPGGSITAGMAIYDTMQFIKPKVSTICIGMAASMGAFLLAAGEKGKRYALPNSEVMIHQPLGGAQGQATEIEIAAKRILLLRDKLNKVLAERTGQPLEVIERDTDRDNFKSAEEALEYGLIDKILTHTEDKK
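FRET quenching reversal measured ClpP activation: 10 microg/mL B. subtilis ClpP at pH 8 with the FRET-FV decapeptide, read at 430 nm after 320 nm excitation. The 20-min minus 0-min signal was scaled between DMSO/no-enzyme wells and ADEP (5.8 microM final).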
TRPV1 potentiator = human TRPV1 potentiation. TRPV1-expressing cells, Fluo-8 calcium influx, capsaicin EC20 potentiation; host cell line not named in the record; control for the full effect not named in the record. potentiation, % at 8.33 µM. 320,000 compounds, 0.02% hits; active means potentiation above 80%; inconclusive means 30% to 80%; inactive means below 30%; also: 0% is about no effect
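Fluo-8 calcium influx in TRPV1-expressing cells, kinetic read (ex 480/em 520 nm). Compound added and read 3 min for agonist activity, followed by capsaicin at EC20 final and 2 min further read for enhancement.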
* = called active by the depositor; ? = inconclusive; . = not tested or not shown; & = joins results of further samples; [ ] = dose if it differs, or a comment.

SMILES	TRPML1 inh	Sfp inh	Menin-MLL FL inh	TRPML1 agonist	PINK1 expr mod	ClpP mod	TRPV1 potentiator
COc1cc(NC(=O)COC(=O)CNS(=O)(=O)c2ccc(F)c(F)c2F)cc(OC)c1	-20.0	3.0%	1.2	0.2	1.8%	-5.7%	6.3
COc1ccc(/C=N/NC(=O)CCn2nc(C)cc2C)cc1O	22.9	13.7%	5.0	-0.4	0.4%	-3.4%	3.8
CCC1(c2ccccc2)NC(=O)N(CC(=O)Nc2ccc(S(N)(=O)=O)cc2)C1=O (configuration not stated)	5.2	12.4%	4.5	0.3	0.9%	.	5.3
CCOC(=O)C1CCN(C(=O)CCNS(=O)(=O)c2cc(Br)cnc2N)CC1	-7.2	5.9%	.	-0.3	-1.1%	-20.3%	-11.1
CC(C)C(=O)Nc1ccc2oc(-c3cc(F)c(F)cc3Cl)nc2c1	-8.5	10.1%	-0.5	-0.7	?	-107.8%	25.0
Cc1nc(SCC(=O)NCC2COc3ccccc3O2)c2c(C)c(C)sc2n1 (configuration not stated)	-16.4	.	.	-0.4	0.7%	.	-5.6
O=C(O)c1cc(NC(=O)c2ccc([N+](=O)[O-])cc2)cc(NC(=O)c2ccc([N+](=O)[O-])cc2)c1	-6.8	7.8%	-1.5	-0.8	5.0%	.	27.5
COC(=O)[C@@]1(Cc2ccccc2)[C@H]2C(=O)N(C)C(=O)[C@H]2[C@H]2CN=C(SCc3ccc(C#N)cc3)N21	-3.4	.	.	2.8	0.6%	-0.5%	.
COC(=O)CSC1=C(C#N)C(c2ccccc2)CC(=O)N1 (configuration not stated)	-7.1	?	2.4	0.0	3.6%[38.3 µM]	0.6%	15.4
O=C1CC(c2nc(-c3cccc(Cl)c3)no2)CN1c1ccc2c(c1)OCCO2 (configuration not stated)	-16.9	.	.	1.2	6.7%	0.4%	.
Cc1cc2oc(=O)cc(CN3CCCCC3C)c2cc1C (configuration not stated)	10.7	-5.1%	7.6	1.2	3.5%	.	-0.5
Cn1nnnc1SCC(=O)Nc1ccc(Cl)cn1	-2.9	14.5%	.	-0.4	-0.4%	0.5%	-5.2
CCN(CC)CCCNC(=O)c1cn(C)c2ccc(S(=O)(=O)N3CCOCC3)cc2c1=O	-2.7	.	.	0.3	1.0%	-0.1%	.
Cc1noc(C)c1C(=O)Nc1nc(C23CC4CC(CC(C4)C2)C3)cs1	51.3	3.8%	4.6	1.6	?	-6.1%	-7.3
NC(=O)CC(NC(=O)c1cccc(Br)c1)c1ccc(NC2CCC2)c([N+](=O)[O-])c1 (configuration not stated)	28.0	9.6%	-1.2	-0.3	0.4%	2.3%	-5.0
CC[n+]1c(C)sc2c(C)cc(C)cc21	15.4	?	2.3	-0.4	0.2%	-3.5%	-6.3
O=C(CCC1N=C2c3ccccc3N=C(SCC(=O)NCC3CCCO3)N2C1=O)NCc1ccc(F)cc1 (configuration not stated)	?	18.7%	0.2	-0.7	1.0%	4.4%	29.7
Cc1cc(C)cc(NC(=O)Cn2c(=O)n(-c3ccc(C)c(C)c3)c(=O)c3oc4ccccc4c32)c1	5.6	.	.	1.1	-0.6%	?	.
S=C1c2ccccc2CN1c1ccccc1	1.6	-14.4%	-1.5	0.6	-1.1%	-7.7%	2.8
O=C(Nc1ccc([N+](=O)[O-])cc1)c1cccc(S(=O)(=O)Nc2ccccn2)c1	7.5	5.1%	-2.9	0.4	4.5%	.	1.7
COc1ccc(S(=O)(=O)N2CCCCCC2)cc1NC(=O)CCCOc1ccccc1	11.6	.	.	0.8	-1.0%	-0.2%	19.3
COc1ccc2[nH]cc(CCN=C(NC(=O)c3ccccc3F)Nc3nc(C)cc(C)n3)c2c1	41.7	.	.	3.9	1.1%	-0.2%	.
Cc1c(C)n(Cc2ccccc2)c2ccc(C(=O)NCc3ccccc3F)cc12	14.4	.	.	1.4	4.3%	?	.
COc1ccc(NC(=O)c2cc3ccccc3oc2=O)cc1	9.9	.	.	-0.3	3.7%	-1.5%	.
Cc1ccc(CNC(=O)C2CCN(c3ncnc4c3nc3n4CCCCC3)CC2)cc1	-9.5	.	.	-0.1	?	0.9%	.
COCC(C)N1CCC(n2nccc2NC(=O)CCCc2ccccc2)CC1 (configuration not stated)	16.5	0.0%	-9.1	1.2	-0.6%	1.4%	?
CC(C)CNC(=O)C1(C)CCCN1Cc1ccc(S(C)(=O)=O)cc1 (configuration not stated)	.	.	.	-0.8	1.6%	-2.7%	.
COc1ccc(CCc2nc(-c3cccs3)no2)cc1	-2.4	0.0%	-2.0	1.3	0.5%	-0.1%	?
C/C(=N\NC(=O)C1CC1)c1cccnc1	-8.0	8.6%	-0.5	-0.1	5.0%	1.2%	4.9
CC(=O)Nc1cccc2c1C(=O)N(c1ccccc1C)C2=O	6.2	0.3%	-7.1	0.7	-1.0%	.	16.8
CC(C(=O)c1ccc(-c2ccccc2)cc1)[n+]1cccc(Br)c1 (configuration not stated)	0.6	5.1%	3.1	-0.8	4.5%	.	17.4
Cc1ccc(-n2nnnc2SCC(=O)c2c(N)n(CC(C)C)c(=O)n(C)c2=O)cc1	0.1	12.9%	-0.5	-0.2	18.4%[38.3 µM]	-1.3%	11.8
C=CCc1ccc(OCCOc2cccc(/C=N/n3cnnc3)c2)c(OC)c1	-10.5	.	.	1.8	-2.0%	-6.6%	.
CSc1nc2c(c(=O)[nH]c(=O)n2C)n1Cc1ccccc1	-11.6	8.6%	1.9	-0.1	-1.2%	-0.6%	7.5
Cn1c(=O)n(Cc2ccccc2)c(=O)c2c1nc1n2CCN1c1ccccc1	-8.4	.	.	1.8	-0.7%	-9.7%	.
Cc1nnc(N2CCN(C(=O)Nc3cccc(C(F)(F)F)c3)CC2)c2nn(-c3ccccc3)c(C)c12	15.7	.	.	1.7	3.6%	-10.9%	.
O=C(COc1cccc2ccccc12)NNC(=O)c1cnccn1	9.1	8.0%	-1.7	-0.7	-0.6%	1.3%	14.5
O=C1C(=O)N(CNc2ccccn2)c2ccccc21	10.8	3.5%	-12.6	-0.3	-2.2%	-3.5%	2.8
O=C(NCC(c1ccco1)S(=O)(=O)c1cccs1)c1ccc(Cl)cc1 (configuration not stated)	-19.4	.	.	1.5	0.6%	0.4%	.
NS(=O)(=O)c1ccc(CNC(=O)/C=C/c2ccccc2[N+](=O)[O-])cc1	-6.7	8.2%	1.1	1.2	-0.5%	-0.1%	7.1
Cc1cccc(N2C(=O)CN=C2Nc2nc(C)cc(C)n2)c1	3.5	-5.0%	0.8	-0.5	-0.6%	-1.9%	-4.0
COC(=O)C1=C(C)N(Cc2ccccc2)C(=NCCc2c[nH]c3ccccc23)N[C@H]1c1ccccc1	4.1	?	19.3	-0.3	-0.3%	-0.9%	-4.1
O=C(NCc1ccncc1)c1ccc(S(=O)(=O)Nc2ccccc2)cc1	-17.2	.	.	1.3	4.4%	1.5%	22.4
Cc1c(C)c2c(OCC(=O)N3CCC(C(=O)O)CC3)cc3c(c2oc1=O)CCC(C)(C)O3	.	5.9%	-1.2	.	-1.0%	5.0%	1.8
Cc1ccc(CCNC(=O)Cn2c(-c3cccs3)cc3cc(F)ccc32)cc1	-3.4	.	.	-0.4	?	?	.
CCOC(=O)c1c(C)n(CCO)c2ccc(O)cc12	-10.5	0.3%	1.5	-0.4	-1.1%[38.3 µM]	-0.4%	-0.5
Cc1ccc2[nH]cc(CCNC(=O)c3cccnc3)c2c1	8.8	12.3%	1.2	0.7	-0.4%[38.3 µM]	0.0%	4.6
CCn1c(SCC(=O)NCC2CCCO2)nc2c(c1=O)SC(C)C2 (configuration not stated)	2.1	12.7%	-5.2	-0.7	4.5%	1.7%	16.9
CC1(C(=O)NC2CCCCCC2)CCC(=O)N1Cc1ccc2c(c1)OCO2 (configuration not stated)	-10.8	21.1%	-0.5	0.3	-3.2%	0.1%	3.2
Cc1ccc(NC(=O)c2sc3nc(N)c(C#N)cc3c2N)cc1	2.3	?	13.2	-0.7	0.4%	.	7.6
Cc1ccc(C)c(N)c1	-7.4	.	.	0.4	1.4%	0.8%	3.0
CSC1=N/C(=C/c2cccnc2)C(=O)N1Cc1ccccc1	13.8	-23.8%	7.7	0.2	2.3%	.	-27.5
CC(Sc1nncn1C)C(=O)Nc1nnc(-c2ccccc2)s1 (configuration not stated)	5.3	15.2%	1.3	0.0	1.5%	-8.0%	26.9
CC(=O)NC(C)(C)C1CC=C(C)/C(=N\O)C1 (configuration not stated)	-6.4	19.3%	0.9	-0.2	14.2%[38.3 µM]	-1.7%	1.1
Cc1ccccc1NS(=O)(=O)c1ccc2c(c1)oc(=O)n2C	-10.3	6.8%	2.1	0.7	-0.7%	0.4%	1.7
COc1cc(OC)c2ccc(=O)oc2c1C(CC(=O)N1CCN(c2ccccc2)CC1)c1ccc2c(c1)OCO2 (configuration not stated)	8.0&0.9	-0.5%&-6.3%	8.5&10.4	1.4&1.5	-0.5%	?	?
CCOC(=O)c1c(NC(=O)/C=C/c2ccc(C(C)C)cc2)sc2c1CCC2	-7.8	.	.	0.5	0.4%	-2.2%	.
COc1cccc(C(=O)Nc2cc3cc(OC)ccc3oc2=O)c1	6.4	.	.	0.8	0.8%	-1.5%	.
COC(=O)c1cc2cc(Cl)ccc2nc1SC	-0.7	18.9%	-0.4	0.4	10.0%	-1.0%	-4.2
Cc1oc(-c2ccccc2Cl)nc1CSc1nc2c(c(=O)[nH]1)CCCC2	-10.4	-1.2%	-8.1	1.6	3.3%	0.5%	-0.2
The list goes on:
SMILES	TRPML1 inh	Sfp inh	Menin-MLL FL inh	TRPML1 agonist	PINK1 expr mod	ClpP mod	TRPV1 potentiator
CCOC(=O)N1CCC(N(CCN(C)C)C(=S)Nc2cccc(C)c2)CC1	9.9	12.7%	4.4	0.1	2.7%	-1.0%	4.6
C/C=C(/C)C(=O)O[C@@H]1c2cc3c(c(OC)c2-c2c(cc(OC)c(OC)c2OC)[C@@H](OC(C)=O)[C@@H](C)[C@H]1C)OCO3	4.7	-7.5%	-3.1	1.3	1.7%	-1.5%	-9.7
COc1ccc(OC)c(NC(=O)CSc2nccn2Cc2ccco2)c1	4.4	12.8%	.	1.7	-0.3%	1.0%	5.1
Cc1cc(C)c(O)c(-c2cc(C(=O)Nc3ccc(S(=O)(=O)N4CCOCC4)cc3)[nH]n2)c1	-2.8	18.7%	1.0	1.0	23.4%	-3.6%	11.1

This is a random part of the collection; about 4.4% have a hit in one of these screens.
